Compound activity: PubChem BioAssay, Vanderbilt University
GIRK2 act: activators of human GIRK2 potassium channels; G protein-activated inward rectifier potassium channel 2 (Homo sapiens), P48051; HEK293-GIRK2 thallium flux, Thallos fluorescence; calls only for hits at 25 µM; actives 0.05% (n = 63,000);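 active means among the strongest 0.2% of first-round signals and kept after retests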;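 further: first round at about 10 µM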
Target sequence (P48051 whole entry, looked up): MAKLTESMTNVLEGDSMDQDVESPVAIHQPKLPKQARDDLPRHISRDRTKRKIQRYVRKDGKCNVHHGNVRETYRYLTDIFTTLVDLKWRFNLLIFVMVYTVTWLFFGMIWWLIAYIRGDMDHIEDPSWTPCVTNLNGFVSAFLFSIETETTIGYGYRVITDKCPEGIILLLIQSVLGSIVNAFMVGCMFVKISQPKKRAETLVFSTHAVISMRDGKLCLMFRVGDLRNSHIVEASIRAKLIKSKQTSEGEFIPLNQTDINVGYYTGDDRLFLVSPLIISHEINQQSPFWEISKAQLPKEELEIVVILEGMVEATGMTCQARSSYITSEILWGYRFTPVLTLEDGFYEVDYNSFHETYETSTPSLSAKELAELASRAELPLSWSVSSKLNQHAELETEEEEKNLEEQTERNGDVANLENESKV
Calls only; i = inactive. A portion of the library; rates above refer to the full screens.

SMILES | GIRK2 act
O=C1C(O)C(O)C(=O)N1Cc1ccccc1 (stereo not given) | i
CCOc1ccc(-c2ccc(OCCNC(=O)CCc3ccc(OC)cc3)nn2)cc1 | i
O=C(O)C1CCN(c2ncnc3c2oc2ccccc23)CC1 | i
CC(=O)N1CC(Oc2nc3c(Cl)cccc3s2)C1 | i
CC(=O)Nc1ccc(S(=O)(=O)N2CC3(COC(C)(C)OC3)C2)cc1 | i
O=C(Nc1ccccc1Cl)c1ccc(-n2cnnn2)cc1 | i
CCc1ccc(N(Cc2ccc(OC)cc2)S(=O)(=O)c2cccn3c(C)nnc23)cc1 | i
COc1ccc(CCC(=O)N2CCC(CSc3nccn3C)CC2)cc1 | i
CC(=O)/C(C#N)=C1/NC(=O)C(Cc2ccccc2)S1 (stereo not given) | i
COc1ccc(-n2nnc(C(=O)N3CC(O)C3)n2)cc1 | i
COc1cccc(-c2nc(C#N)c(N3CCN(C(=O)c4ccccc4OC)CC3)o2)c1 | i
COC(=O)c1sc2cccc(F)c2c1S(=O)(=O)Nc1cc(OC)c(OC)c(OC)c1 | i
O=C(Nc1ccc(-c2ccn[nH]2)cc1)c1cccs1 | i
O=C(/C=C/c1ccc2c(c1)OCO2)NCC1CCN(C(=O)Oc2ccccc2)CC1 | i
COC(=O)c1ccc(C(=O)OC)c(NC(=O)C2Cc3ccc(Cl)cc3C(=O)O2)c1 (stereo not given) | i
CCc1ccc(C(=O)N(CCOC)Cc2ccoc2)cc1 | i
O=S(=O)(Nc1nc2ccccc2nc1NCC1CCCO1)c1cccc(Cl)c1 (stereo not given) | i
CN(c1ccc2c(c1)OCO2)S(=O)(=O)c1ccsc1-c1nc(-c2ccccc2)no1 | i
C=CCC1/C=C(\C)CC(C)CC(OC)CC2O[C@@](O)(C(=O)C(=O)N3CCCC[C@H]3COC(/C(C)=C/[C@@H]3CCC(O)[C@H](OC)C3)C(C)C(O)CC1=O)[C@H](C)C[C@@H]2OC (stereo not given in full) | i
Cc1cccc(N2CC(c3nc4ccccc4n3Cc3ccccc3C)CC2=O)c1 (stereo not given) | i
COc1cccc(C(=O)CC2c3c(cc4c(c3OC)OCO4)CCN2C)c1 (stereo not given) | i
N#C/C(=C\Nc1ccc2c(c1)OCO2)c1nc(-c2cc3cc([N+](=O)[O-])ccc3oc2=O)cs1 | i
Cc1nc(Nc2ccccn2)cc(N2CCN(S(=O)(=O)c3cccs3)CC2)n1 | i
COc1ccc(Cl)cc1NC(=O)N1CCC2(CC1)OCCS2 | i
Cc1ccccc1C(=O)N1CCN(c2oc(-c3cccc(Cl)c3)nc2C#N)CC1 | i

The list goes on, starting with the last 6 of the part before.
SMILES | GIRK2 act
Cc1cccc(N2CC(c3nc4ccccc4n3Cc3ccccc3C)CC2=O)c1 (stereo not given) | i
COc1cccc(C(=O)CC2c3c(cc4c(c3OC)OCO4)CCN2C)c1 (stereo not given) | i
N#C/C(=C\Nc1ccc2c(c1)OCO2)c1nc(-c2cc3cc([N+](=O)[O-])ccc3oc2=O)cs1 | i
Cc1nc(Nc2ccccn2)cc(N2CCN(S(=O)(=O)c3cccs3)CC2)n1 | i
COc1ccc(Cl)cc1NC(=O)N1CCC2(CC1)OCCS2 | i
Cc1ccccc1C(=O)N1CCN(c2oc(-c3cccc(Cl)c3)nc2C#N)CC1 | i
COc1cccc(C(=O)N2CCN(c3oc(-c4ccc(OC)c(OC)c4)nc3C#N)CC2)c1 | i
COc1ccc(OC)c(NC(=O)CSc2nnc(C)c3cnn(-c4ccccc4OC)c23)c1 | i
COc1ccc(/C=C/C(=O)NCCC(O)c2cccc3ccccc23)cc1OC (stereo not given) | i
Cc1nc(-c2nnc(NC(=O)Cc3ccccc3Cl)o2)cs1 | i
COc1ccccc1N1CCN(CCNC(=O)Nc2ccc3c(c2)OCO3)CC1 | i
c1ccc(-n2nnc(-c3noc(-c4ccccn4)n3)c2-c2ccncc2)cc1 | i
O=C(CSc1nnc2ccc3ccccc3n12)Nc1ccc(F)c(Cl)c1 | i
CCN(CC)S(=O)(=O)c1ccc(-c2nc(C#N)c(N3CCN(Cc4ccccc4)CC3)o2)cc1 | i
Cc1cc(OCC(=O)Nc2ccccc2Br)nc(N2CCCCCC2)n1 | i
Cc1ccc(C(=O)Nc2cc(C)nn2-c2nc(-c3cccs3)cs2)cc1 | i
Cc1c(C(=O)NCCOc2ccc3c(c2)OCO3)cccc1[N+](=O)[O-] | i
COCCNC(=O)Nc1cccc(-c2csc(-c3ccccc3)n2)c1 | i
CC(C)S(=O)(=O)c1ccc(CC(=O)NCC(O)c2ccoc2)cc1 (stereo not given) | i
O=C(c1cnn(-c2ccccc2)n1)N1CCC(Cn2ccnc2-c2ccccc2)CC1 | i
CC(=O)c1ccc(N2CCN(C(=O)C(=O)c3c[nH]c4ccccc34)CC2)cc1 | i
O=C(NC1CCCC1)c1ccc2noc(-c3ccccc3)c2c1 | i
Cc1ccc(N2CCCn3c2nc2c3c(=O)n(CC(N)=O)c(=O)n2C)c(C)c1 | i
COc1ccc(-n2nnc(C(=O)NCCCOC(C)C)c2-c2cccnc2)cc1 | i
O=C(Nc1nc2c(s1)CN(C(=O)c1cc(-c3ccccc3)on1)CC2)c1cccs1 | i
O=C(NC(C(=O)NC1=NCCS1)C12CC3CC(CC(C3)C1)C2)C1CCCCC1 (stereo not given) | i
CCCCC/C=C/C1=C(CO)[C@H](O)[C@H]2O[C@H]2[C@@H]1O | i
COCC(=O)Nc1c2c(nn1CC(=O)NCc1ccco1)CSC2 | i
O=C(Cc1ccccc1Cl)NCCc1nc(C2CC2)cc(C(F)(F)F)n1 | i
Cc1ccc(Oc2nccn3c(=O)n(CC(=O)Nc4cc(Cl)ccc4C)nc23)cc1 | i
CC(C)CCNC(=O)c1sccc1S(=O)(=O)N(C)c1ccc(F)cc1 | i

Molecules listed so far with an NH in an aromatic ring (2):
SMILES | GIRK2 act
O=C(Nc1ccc(-c2ccn[nH]2)cc1)c1cccs1 | i
CC(=O)c1ccc(N2CCN(C(=O)C(=O)c3c[nH]c4ccccc34)CC2)cc1 | i

(more compounds)
SMILES | GIRK2 act
CCn1c(SCC(=O)NCc2ccc(OC)c(OC)c2)nc2c(-c3ccccc3)c[nH]c2c1=O | i
CC1Oc2ccccc2OC1C(=O)Nc1ccc(-n2nnn(C)c2=O)cc1 (stereo not given) | i
CCCC(=O)Nc1cnc(N2CCN(C)CC2)nc1 | i
Cc1ccc(Sc2ccc3nn(CC(=O)Nc4ccc(Br)c(C)c4)c(=O)n3n2)cc1 | i
CSc1nnc(CSc2nc(C)cc(C)n2)n1C | i
CC(=O)Cn1c(=O)c2c(nc3n(-c4cc(C)cc(C)c4)c(-c4ccccc4)cn23)n(C)c1=O | i
Cc1ccc(N2CCN(S(=O)(=O)c3ccc(C)c(C)c3)CC2)c(C)c1 | i
COc1ccccc1N1CCN(c2ccnc(SCC(=O)Nc3ccc(F)cc3F)n2)CC1 | i
COc1ccc(NC(=O)CSc2nnc(-c3cccnc3)o2)cc1 | i
Cc1cc(=O)[nH]c(SCc2ccc(C(=O)Nc3nccs3)cc2)n1 | i
CCCCc1ccc(S(=O)(=O)c2cnc(SCC(=O)NCc3ccco3)[nH]c2=O)cc1 | i
Cc1nnc(NC(=O)CSc2nnc(CCc3c(C)[nH]c(=O)n(C)c3=O)o2)s1 | i
Cn1c(=O)c2c(nc(NCc3ccccc3)n2CC(=O)N=Nc2c(O)[nH]c3ccccc23)n(C)c1=O | i
CCOc1ccc(C(=O)Nc2nonc2-c2ccc(OC)cc2)cc1 | i
Cn1cccc(C(=O)N2CCC3(CC2)OCCS3)c1=O | i
OC(COc1ccccc1-c1ccccc1)CN1CCCCCC1 (stereo not given) | i
Cc1cccc(-c2noc(C3CCN(CC(=O)NCc4ccc5c(c4)OCO5)CC3)n2)c1 | i
CC(C)OC(=O)c1ccc(N/C=C(\C#N)c2nc(C3CC3)cs2)cc1 | i
COc1ccc(/C=C/C(=O)Nc2ccc(-n3nnn(C)c3=O)cc2)cc1OC | i
Cc1cc(C(=O)N2CCOCC2)n(CC(=O)N2CCN(c3cc(Cl)ccc3C)CC2)n1 | i
COc1cc(Br)cc2cc(C(=O)OCCn3c([N+](=O)[O-])cnc3C)c(=O)oc12 | i
Cc1cccc(-n2c(C)c(C)n3c4c(=O)n(CC(=O)C(C)(C)C)c(=O)n(C)c4nc23)c1C | i
Cc1ccccc1C(=O)NCC1(O)CCOc2ccccc21 (stereo not given) | i
COc1ccc(CNC(=O)Cc2cc(=O)[nH]c(SCc3cccc(OC)c3)n2)cc1 | i
CCOc1ccccc1NC(=O)N1CCc2nc(NC(=O)C3CC3)sc2C1 | i

SMILES | GIRK2 act
O=C(Nc1ccc2c(=O)c3ccccc3oc2c1)c1ccccc1[N+](=O)[O-] | i
COc1cccc(NC(=O)CSc2ncc(S(=O)(=O)c3ccc(Cl)cc3)c(=O)[nH]2)c1 | i
C=C(C)Cn1c(SC)nc2c1c(=O)n(C)c(=O)n2C | i
CC1CCN(S(=O)(=O)c2cccn(Cc3c(F)cccc3Cl)c2=O)CC1 | i
Cc1ccc(-n2nnc3c(N4CCN(C(=O)/C=C\c5ccccc5)CC4)ncnc32)cc1 | i
CCC(C(=O)N1CC2CC1C(=O)O2)c1ccccc1 (stereo not given) | i
O=C1C(Nc2ccccc2)=CC(=O)c2ncccc21 | i
CCN(Cc1ccco1)c1nc2cc(C(=O)OC)ccc2c(=O)n1Cc1ccc(F)cc1 | i
Cc1cc(NC(=O)C2CCN(C(=O)c3ccc(Cn4ccnc4)cc3)CC2)no1 | i
CC(C)Oc1ccc(-c2noc(Cn3ccn4nc(-c5cccc6ccccc56)cc4c3=O)n2)cc1 | i
Cc1cc(-c2ccccc2)c2c(n1)sc1c(=O)n(CC(=O)Nc3c(C)cccc3C)cnc12 | i
Cc1nnc2ccc(S(=O)(=O)N(Cc3ccccc3Cl)c3cccc(F)c3)cn12 | i
Cc1cc(NC(=O)CSc2nnc(N3CCN(C(=O)Cc4noc5ccccc45)CC3)s2)no1 | i
O=C(NCc1ccc(C(=O)c2cccs2)s1)c1ccc(Cl)s1 | i
CN1CN(CCC(=O)O)CN(C)C1=S | i
COc1ccccc1N1CCN(CC(=O)N2CCN(S(C)(=O)=O)CC2)C1=O | i
c1cc(-c2nnc3sc(-c4ccc5c(c4)OCCCO5)nn23)ccn1 | i
COc1cccc(S(=O)(=O)Nc2ccc(C(=O)Nc3ccc(F)cc3)cc2)c1 | i
COc1ccc(C)cc1NC(=O)c1cc2n(n1)CCCO2 | i
COc1ccc(-c2nc(Cn3nnc(C(=O)Nc4ccc(Cl)cc4)c3N)c(C)o2)cc1OC | i
O=C(c1ccc2ncsc2c1)N(CCN1CCOCC1)c1nc2ccc(Cl)cc2s1 | i
Cc1nc(C)c(-c2ccc(=O)n(CCNC(=O)c3cccc(-n4cnnn4)c3)n2)s1 | i
CC(=O)c1ccc(N2CCN(C(=O)C3CN(c4nc5ccc(F)cc5s4)C3)CC2)cc1 | i
COc1ccccc1CN1CCc2nc(SCc3nc(-c4ccc(C)cc4)oc3C)[nH]c(=O)c2C1 | i
COC(=O)c1ccc(N/C=C(\C#N)c2nc(-c3cccc(OC)c3)cs2)cc1 | i

SMILES | GIRK2 act
CCOC(=O)c1ccccc1NC(=O)Cn1nc2ccc(Sc3ccc(C)cc3)nn2c1=O | i
O=C1CCCC(=O)N1CCS(=O)(=O)N1CC(c2nc(Cc3ccccc3)no2)C1 | i
COCCCn1c(C(=O)NCc2ccc3c(c2)OCO3)cc2c(=O)n3ccccc3nc21 | i
O=C(c1cccs1)N1CCN(C(=O)C2CC2c2ccccc2)CC1 (stereo not given) | i
COc1ccc(CCNC(=O)c2nnn(-c3ccc(C)c(C)c3)c2-c2ccncc2)cc1OC | i
O=C(Cc1ccc(F)cc1)N(Cc1cccnc1)c1nc2c(F)cccc2s1 | i
COc1ccc(-c2cc3c4nn(CC(=O)Nc5ccc(C)c(C)c5)c(=O)n4ccn3n2)cc1 | i
CCc1cccc(OCC(O)Cn2c(NN)nc3c2c(=O)[nH]c(=O)n3C)c1 (stereo not given) | i
O=C1CCSCC(C(=O)NC23CC4CC(CC(C4)C2)C3)N1 (stereo not given) | i
COc1ccccc1C(O)Cn1cc(C(=O)Nc2ccc(S(N)(=O)=O)cc2)nn1 (stereo not given) | i
O=C(Nc1nccs1)C1CCN(C(=O)Cc2noc3ccccc23)CC1 | i
O=C(CCc1csc(NC(=O)NC2CCCCC2)n1)Nc1ccc(F)c(Cl)c1 | i
COc1ccc(-c2cnc(CNC(=O)c3nc4ccccc4s3)[nH]2)cc1 | i
COCc1cc(=O)[nH]c2cc(NC(=O)c3ccc(-n4cccc4)cc3)ccc12 | i
Cc1ccc(C)c(N2CCN(C(=O)CCCn3c(=O)[nH]c4ccsc4c3=O)CC2)c1 | i
Cc1ccc(C(=O)Nc2c3c(nn2CC(=O)NCc2ccccc2)CSC3)cc1C | i
O=C(Nc1ccccc1)OC1CCCC(NC(=O)C2CCCC2)C1 (stereo not given) | i
COc1cc(N2C=C(C#N)S(=O)(=O)c3ccccc32)cc(OC)c1OC | i
CC(=O)Nc1ccc(NC(=O)c2cc3cccnc3n(C)c2=O)cc1 | i
COCCN(CCOC)S(=O)(=O)CCNC(=O)c1ccc2c(c1)OCO2 | i
COc1cccc(S(=O)(=O)N2CCN(CC(C)O)CC2)c1 (stereo not given) | i
O=S(=O)(NCCOc1ccccc1)c1ccccc1C(F)(F)F | i
CO/N=C(/c1ccccc1)c1cnn(-c2ccccc2)c1N | i
O=C(CN1C(=O)C2(SCC(=O)N2c2ccc(F)c(F)c2)c2ccccc21)Nc1ccccc1 (stereo not given) | i
Cc1nnc(NC(=O)Cc2c(C)nc(SCc3ccccc3F)[nH]c2=O)s1 | i
CC12CCC(O)CC1=CCC1C2CCC2(C)C(C(=O)C[n+]3ccccc3)CCC12 (stereo not given) | i
CCc1nc(OCC(=O)Nc2ccc(Br)cc2F)c2ccccc2n1 | i
